# High-throughput results from PubChem BioAssay.
# Six1-Eya2 blk: Six1/Eya2 interaction inhibition. AID 651725. 360,000 tested, 0.56% active. AlphaScreen GST-Six1/His-Eya2 binding, biochemical; stronger effect = lower value; control for the full effect not named in the record. activity change, % (test concentration not listed); in the data active = activity change below about -65%; inconclusive = about -30% to -65%; inactive = above about -30%; further: on the % scale 0 is the no-effect control and ±100 the full control effect; compound concentration not given in the record
#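 Six1/Eya2 binding was read as AlphaScreen signal after compounds were pinned into GST-Six1 plus His-tagged Eya2 (5X stock 250/500 nM) in pH 8.0 Tris/NaCl/TCEP buffer, beads added, then incubated 1 h, 37 C, dark.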
# D2 agonist: agonists of human D2 dopamine receptor (beta-arrestin); AID 624465; DiscoveRx PathHunter D2 beta-arrestin, luminescence, 90 min; 100% = 57 uM dopamine signal; activation, % (no concentration beside the values); P14416; 360,000 tested, 0.084% active; in the data active = activation above about 40%; inconclusive = about 15% to 40%; inactive = below about 15%; further: compound concentration not given in the record; the text of the record calls up to 30% inactive
# Target sequence (P14416 whole entry, looked up): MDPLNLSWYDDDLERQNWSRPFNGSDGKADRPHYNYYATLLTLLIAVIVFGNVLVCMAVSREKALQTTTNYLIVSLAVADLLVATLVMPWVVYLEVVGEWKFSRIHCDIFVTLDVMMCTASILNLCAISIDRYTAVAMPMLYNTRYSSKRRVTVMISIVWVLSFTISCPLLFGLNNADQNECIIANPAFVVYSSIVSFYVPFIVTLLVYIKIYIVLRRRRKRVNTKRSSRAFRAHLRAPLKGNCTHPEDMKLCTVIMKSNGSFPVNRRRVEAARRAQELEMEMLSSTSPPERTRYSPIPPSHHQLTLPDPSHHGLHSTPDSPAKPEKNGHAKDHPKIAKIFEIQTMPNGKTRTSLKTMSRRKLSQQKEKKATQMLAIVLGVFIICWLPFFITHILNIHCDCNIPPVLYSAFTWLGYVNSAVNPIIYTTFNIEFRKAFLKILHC
#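 Agonist mode: compounds alone added to overnight-plated D2 PathHunter cells for 90 min at 37 C, with 57 uM final dopamine (EC100) defining full response. Beta-arrestin recruitment detected by chemiluminescent reagent, read after 1 h at ambient temperature.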
# TRPML1 ag: activates the human TRPML1 channel. Q9GZU1. TRPML1-expressing cells, Ca2+ dye fluorescence, FDSS; host cell line not named in the record; reference of the full effect not given here. activation, % (concentration not given with the values). 410,000 tested, 0.12% active. AID 624414; in the data active = activation above about 50%; inconclusive = about 30% to 50%; inactive = below about 30%; further: 0% is about no effect; the text of the record puts the active cut at 80%
# Target sequence (Q9GZU1 whole entry, looked up): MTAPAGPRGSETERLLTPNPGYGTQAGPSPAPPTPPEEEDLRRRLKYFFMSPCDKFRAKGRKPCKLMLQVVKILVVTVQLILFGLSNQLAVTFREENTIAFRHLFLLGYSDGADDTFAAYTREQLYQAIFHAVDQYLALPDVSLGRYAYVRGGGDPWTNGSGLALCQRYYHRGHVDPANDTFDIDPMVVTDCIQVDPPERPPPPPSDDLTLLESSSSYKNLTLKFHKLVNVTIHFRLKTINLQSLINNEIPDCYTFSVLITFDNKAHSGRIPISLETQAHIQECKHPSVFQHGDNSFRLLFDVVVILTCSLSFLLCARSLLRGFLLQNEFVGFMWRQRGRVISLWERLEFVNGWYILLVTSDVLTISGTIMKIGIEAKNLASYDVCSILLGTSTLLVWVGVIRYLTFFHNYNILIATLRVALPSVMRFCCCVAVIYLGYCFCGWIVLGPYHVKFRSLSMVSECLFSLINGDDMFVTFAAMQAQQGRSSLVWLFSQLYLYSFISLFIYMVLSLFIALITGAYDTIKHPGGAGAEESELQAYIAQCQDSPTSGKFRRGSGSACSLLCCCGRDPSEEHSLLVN
#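 Tet-induced TRPML1-DL cells, 1,500 per well, cultured overnight, were loaded with a no-wash Ca2+ dye for 45–90 min. Calcium fluorescence was recorded on the FDSS for 110 s after compound addition, before the EC80 agonist (4 uM 54-4) was added.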
# TRPML1 blocker: human mucolipin-1 channel inhibition; TRPML1-inducible cells, Ca2+ dye fluorescence, FDSS; stronger effect = lower value; inhibition of EC80 agonist-evoked calcium signal; activity change, negative = inhibition, % (test concentration not listed); 390,000 tested, 0.02% active; Q9GZU1; in the data active means activity change below about -50%; inconclusive means about -30% to -50%; inactive means above about -30%;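 further: stimulus is agonist 54-4 at its EC80 concentration; on the % scale 0 is the no-effect control and ±100 the full control effect; compound concentration not given in the record; the text of the record puts the active cut at -80%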
#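 TRPML1-DL cells, Tet-induced overnight (~16 h, 37 °C) at 1,500 cells/well, were loaded with Ca8 no-wash dye plus quencher for 45-90 min at room temperature. Compounds were pinned during FDSS kinetic reading; agonist 54-4 at EC80 (4 uM final) then added.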
# PINK1 expr mod: changes PINK1 expression | PINK1 immunofluorescence, high-content cytometry, 24 h | Potency, µM (highest dose often 76.6 µM), for inactives: at the top dose activation (PINK1 increase), most hits filed as activators | 410,000 tested, 0.2% active | AID 624263; active = well fitted activation curve with a large enough effect; inconclusive = small, poorly fitted or top-dose-only effect; inactive = flat fitted curve, though single readings scatter; cell line not stated here;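 further: potency means the concentration at half of the fitted maximal effect; % of control where 0% means no effect; nearly all actives have a fitted effect of over 65% in size; a mitochondrial uncoupler was the plate control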
#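 Compound titrations (5 concentrations, 24 h) on a stable cell line; DMSO and CCCP controls. Endpoint: fixed-cell PINK1 immunofluorescence with mitochondrial, cell and nuclear markers, scanned by microplate cytometer.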
# CtBP-E1A blk: blocks the CtBP interaction with E1A | AlphaScreen GST-E1A/His-CtBP binding, 1536-well; stronger effect = lower value; control for the full effect not named in the record | activity change, % (no concentration beside the values) | 340,000 tested, 0.49% active | AID 651724; in the data active means activity change below about -65%; inconclusive means about -30% to -65%; inactive means above about -30%; further: on the % scale 0 is the no-effect control and ±100 the full control effect; compound concentration not given in the record
#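 Homogeneous bead-based format: GST-tagged E1A captured on glutathione donor beads, His-tagged CtBP on nickel acceptor beads; compounds precede bead addition by 2 h at 37 °C.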
# Active calls of the source: *; ? = inconclusive; . = not tested or not shown; [ ] = another dose, or the depositor's remark.
SMILES,Six1-Eya2 blk,D2 agonist,TRPML1 ag,TRPML1 blocker,PINK1 expr mod,CtBP-E1A blk
CSCCC1C(C#N)=C(N)Oc2n[nH]c(-c3cccs3)c21 (stereo unspecified),-21,-5.2,-0.7,-5,-0.1%,-14
O=C1c2cccc(-c3ccc(C(F)(F)F)cc3)c2C2CCCCN12 (stereo unspecified),-4,2.6,-0.7,.,0.1%,1
COc1cc2c(cc1OC)CN(C(=O)CSc1nnc(C)s1)CC2,-3,-3.7,0.2,-14,-1.0%,-1
Cc1nn(CCO)c2c1C(=O)CCC2,5,-2.0,1.2,?,-0.7%,0
COC(=O)Cc1c(C)c2ccc(OCC(C)=O)c(C)c2oc1=O,-9,-5.2,0.3,27,-0.7%,-6
O=C(NC1CCCCC1)C(c1ccc(F)cc1)N(Cc1ccccc1)C(=O)CN1C(=O)c2ccccc2S1(=O)=O (stereo unspecified),33,-4.0,0.7,7,2.0%,5
CS(=O)(=O)N(CC(=O)NCCC1=CCCCC1)c1cccc([N+](=O)[O-])c1,-1,-5.7,0.9,16,2.1%,.
Cc1cccc(NS(=O)(=O)c2cc(C(=O)N3CCc4ccccc4C3)ccc2Cl)c1C,-9,-1.6,1.8,29,9.7%[38.3 µM],-16
O=C(N=C1SC2CS(=O)(=O)CC2N1Cc1ccc(F)cc1)C1CCCO1 (stereo unspecified),4,1.0,0.1,-16,-0.6%,-4
COc1ccc(NC2CCCN(C(=O)CCOc3ccccc3)C2)cc1 (stereo unspecified),-18,5.3,1.9,-25,-0.9%,-17
CC(=O)Nc1ccccc1NC(=O)CN(C)S(=O)(=O)c1ccc(C)cc1,10,-0.4,-0.5,1,1.2%,1
CC(C)/C=N\NC(=O)CCCCC(=O)N/N=C/C(C)C,8,0.6,-0.2,42,0.7%,5
CCOc1cccc(C2C(C#N)=C(N)Oc3cc(C)oc(=O)c32)c1OCC (stereo unspecified),14,-3.0,-0.4,22,-0.4%,2
COc1ccc(C)cc1NC(=O)N(Cc1ccc(C)o1)C1CCN(C(C)=O)CC1,.,.,-0.9,-14,1.5%,.
CCOc1ccc(NC(=O)CSc2nnc3scc(-c4ccc(Cl)cc4)n23)cc1,.,.,3.4,6,0.2%,.

# The final 7 entries of the section above lead into the next:
SMILES,Six1-Eya2 blk,D2 agonist,TRPML1 ag,TRPML1 blocker,PINK1 expr mod,CtBP-E1A blk
O=C(N=C1SC2CS(=O)(=O)CC2N1Cc1ccc(F)cc1)C1CCCO1 (stereo unspecified),4,1.0,0.1,-16,-0.6%,-4
COc1ccc(NC2CCCN(C(=O)CCOc3ccccc3)C2)cc1 (stereo unspecified),-18,5.3,1.9,-25,-0.9%,-17
CC(=O)Nc1ccccc1NC(=O)CN(C)S(=O)(=O)c1ccc(C)cc1,10,-0.4,-0.5,1,1.2%,1
CC(C)/C=N\NC(=O)CCCCC(=O)N/N=C/C(C)C,8,0.6,-0.2,42,0.7%,5
CCOc1cccc(C2C(C#N)=C(N)Oc3cc(C)oc(=O)c32)c1OCC (stereo unspecified),14,-3.0,-0.4,22,-0.4%,2
COc1ccc(C)cc1NC(=O)N(Cc1ccc(C)o1)C1CCN(C(C)=O)CC1,.,.,-0.9,-14,1.5%,.
CCOc1ccc(NC(=O)CSc2nnc3scc(-c4ccc(Cl)cc4)n23)cc1,.,.,3.4,6,0.2%,.
COCc1cc(Sc2ccc(Br)cc2)nc(-c2ccccc2)n1,-3,-0.5,0.7,-18,3.4%,-2
O=C(CNC(=O)c1cncc(Br)c1)Nc1ccc(F)c(F)c1F,-4,-6.8,1.1,-1,0.3%,1
CC(C)[C@H]1COCCS(=O)(=O)N1Cc1ccccc1-c1ccccc1,-5,-1.4,0.5,-11,5.6%,3
O=C(O)c1cccc(N2C(=O)CSC2=S)c1,0,3.4,-0.1,-26,0.2%,3
O=C(COC(=O)c1ccc(CO)cc1)Nc1ccc(OC(F)F)cc1,-4,5.3,1.5,-1,-0.2%,-6
c1cnc2cc(-c3ccsc3)ncc2c1,5,-2.7,0.5,18,0.9%,.
COc1ccc(S(=O)(=O)N2CCC(C(=O)Nc3ccccc3C)CC2)c2cccnc12,-11,-2.4,1.1,-6,0.8%,-16
CCn1c(C)c(/C=N/Nc2nc3ccccc3s2)c2ccccc21,-26,9.5,-0.1,-9,13%[38.3 µM],-22
Cc1ccc(C(=O)NCC2CCCN2S(=O)(=O)c2cccs2)cc1C (stereo unspecified),4,-2.6,0.4,-16,-1.0%,1
CCC1CN(C(=O)N2CCC(C(=O)NCCc3ccc(OC)cc3OC)CC2)c2ccccc2O1 (stereo unspecified),-5,1.9,-1.1,-1,2.9%,-4
COc1ccccc1COCC(O)CNCC1(N2CCCCC2)CCCCC1 (stereo unspecified),1,-1.9,-1.4,-2,-3.0%,0
Fc1cccc(F)c1CSc1nc2ccccc2[nH]1,8,-2.6,-0.3,0,1.6%,4
CCOC(=O)C1(CCOc2ccccc2)CCN(Cc2ccncc2)CC1,-3,-6.9,1.1,-17,0.2%,-1
COc1ccc(NS(=O)(=O)c2ccc(C)c(NC(=O)NC3CCCCC3)c2)cc1,1,4.0,0.4,-5,0.3%,-1
CN(C)c1nc(N)nc(CSc2nc3c(c(=O)n(C)c(=O)n3C)n2Cc2ccccc2F)n1,-21,-2.0,-0.2,51,1.9%,10
COc1cccc2sc(NC(=O)c3ccc(Br)s3)nc12,-17,-0.8,-0.8,9,3.2%,-1
COc1cc(CNC(C)c2ccccc2)cc(Br)c1OCc1ccccc1 (stereo unspecified),16,-2.8,0.1,26,-0.7%,25
O=C(NC12CC3CC(CC(C3)C1)C2)C1CC(=O)N(c2ccccc2)C1 (stereo unspecified),-5,-1.7,2.0,-8,-2.4%,4
Cc1ccc2c(c1)N(CC(=O)NCc1cccs1)C(=O)CO2,2,1.0,-0.3,-11,5.3%[38.3 µM],-1
COc1cccc(OCCCn2cc(/C=C3/C(=N)N4C=C(C)SC4=NC3=O)c3ccccc32)c1,-10,-0.8,3.0,2,10%,-7
CCOc1ccc2nc(N(Cc3cccnc3)C(=O)c3ccco3)sc2c1,.,.,1.5,-14,16%,.
Cc1cccc(-n2ccnc2SCC(=O)Nc2cc(C(F)(F)F)ccc2Cl)c1,.,.,1.8,31,-1.0%,.
Cc1ccc(C#N)c(=O)n1CC(=O)Nc1ccccc1C(F)(F)F,.,.,-1.0,-11,0.3%,.
COc1ccc(CNC(=O)COC(=O)/C=C/c2cccc(Br)c2)cc1OC,-4,0.8,0.9,-4,3.6%,-22
COc1ccc(/C=N/NC(=O)c2cc(C)n(-c3ccccc3)c2C)cc1OC,-19,0.1,0.3,-17,2.1%,?
C[C@@H]1CN([C@@H](C)CO)C(=O)CCCn2nncc2CO[C@H]1CN(C)S(C)(=O)=O,14,-3.6,-0.4,-21,-0.8%,25
CCOC(=O)C1(CC2CCCCO2)CCN(C(=O)NCc2ccccc2)CC1 (stereo unspecified),-1,-4.4,1.8,-4,-1.2%,-17
CCOc1ccc(C2=NC(c3ccncc3)=Nc3ccc(C)cc3N2)cc1OCC,.,.,1.0,-15,5.7%,.
Cc1ccc(NC2Sc3ccccc3NC2=O)cc1 (stereo unspecified),-2,5.1,0.3,-10,1.0%,14
CC(=O)Oc1ccc(C(=O)[C@H]2[C@H]3C(=O)N(c4ccc(C)cc4)C(=O)[C@H]3[C@@H]3C=CC=NN32)cc1,-23,-6.0,1.2,10,2.3%,0
CC(C)c1nc2sc3c(=O)n(N)cnc3c2c2c1COC(C)(C)C2,0,-0.3,0.2,23,8.0%,-12
CCCCCCCNC(=O)CN1N=C(c2ccc(C)cc2)CCC1=O,0,-3.1,.,.,-0.6%,6
Cc1ccc(C)c2[nH]c(=O)c(CN(Cc3cccnc3)C(=S)NCc3ccco3)cc12,-7,-2.9,0.7,29,-0.3%,.
O=C(/C=C/c1cccc(Cl)c1)NCc1ccncc1,9,-2.1,1.5,-9,1.3%,5
Cc1cc(/C=N/NC(=O)c2ccccn2)c(C)n1-c1cccc([N+](=O)[O-])c1,?,-3.2,-1.1,6,0.4%,?
COc1cccc(NC(=O)CN(C)C(=O)Cc2ccc3c(c2)OCCO3)c1,-6,4.2,1.3,9,-1.3%,5
CCOC(=O)c1ccc(S(=O)(=O)N2CCN(c3ccccn3)CC2)cc1,0,-0.1,0.1,-10,8.6%,21
COc1ccc(C)cc1NC(=O)CCS(=O)(=O)c1cccc2nonc12,2,-5.2,-0.5,5,2.5%,-2
COc1ccc(C(=O)/C=C/c2ccc(OCc3ccccc3)cc2)cc1CSCC(=O)O,2,-0.6,-0.3,1,-1.4%,-2
CCCC12CN3CC(C)(CN(C1)C3c1cn(CC)c3ccccc13)C2=O (stereo unspecified),.,.,0.2,-1,-0.3%,.
CCCNC(=O)COC(=O)c1cccnc1Nc1ccccc1F,1,-1.4,1.3,-9,0.2%,5
O=c1cnn(Cc2c(Cl)cccc2Cl)c2ccccc12,-9,3.2,2.9,0,0.0%,0
CCN(CC)C(=O)[C@H]1CC(CC(=O)NCc2cccc(C(F)(F)F)c2)C(=O)N2CCc3c([nH]c4ccccc34)[C@]12C (stereo partly specified),-14,0.5,3.0,-6,15%,-9
O=C(/C=C/c1ccccc1)NCCc1ccccc1,-6,5.1,.,.,2.0%,2
NS(=O)(=O)c1ccc(CCn2c(=S)[nH]c3ccccc3c2=O)cc1,-7,-0.3,0.2,-5,11%,0
CCCn1c(C)cc(/C=C(\C#N)C(=O)OCC(=O)NC(=O)NC(C)(C)C)c1C,3,-8.6,2.7,15,13%,-20
CC(=O)c1ccc(NC(=O)COC(=O)CCC(=O)c2cccs2)cc1,0,-1.9,1.2,8,0.8%,3
Clc1ccc(CNc2ccc3nnc(-c4ccccc4)n3n2)cc1,-3,-0.2,-0.1,16,4.3%,-2
Cc1ccnc(NC(=O)CCC(=O)N(CC(=O)NCc2ccc(F)cc2)CC2CCCO2)c1 (stereo unspecified),-10,0.9,0.4,-20,0.3%,-9
CCC1CCCCN1S(=O)(=O)c1ccc(C(=O)Nc2sc3c(c2C(N)=O)CCC3)cc1 (stereo unspecified),.,.,1.5,38,-4.7%,.
O=S(=O)(NCCC1=CCCCC1)c1cccc(S(=O)(=O)N2CCOCC2)c1,8,1.2,0.0,2,0.4%,-1
Clc1ccc(C2=NCCN2)cc1,3,-2.5,0.1,-10,1.2%,4
CC[C@H](CO)Oc1cc(NCc2ccc(Cl)c(Cl)c2)c2ncn(C(C)C)c2c1,-19,2.3,-0.5,0,2.8%,-19
COc1ccc(NC(=O)C2c3ccccc3OCC(=O)N2C2CC2)cc1 (stereo unspecified),1,.,-0.4,.,-0.7%,6
